Screening data: PubChem, Broad Institute
Tgondii IFNg: T. gondii growth inhibition with IFN-gamma, primary screen, cell-based; Toxoplasma gondii growth in IFN-gamma-treated host cells; stronger effect = lower value; reference of the scale not given here; activity change, negative = inhibition, %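 (about 20 µM by stock and volumes)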; hit rate 3.8% among 69,000; AID 1259416, 2018;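 active means below -70%; inconclusive means fit judged invalid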;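 further: host cells are HeLa cells infected with Toxoplasma gondii; parasite growth read as luciferase light; one replicate is shown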
Active calls of the source: *; ? = inconclusive; & = joins results of further samples; ! = a repeat was not active.

SMILES	Tgondii IFNg
CC(NC(=O)c1cc(-c2cccs2)nn1C)c1nnc2n1CCNCC2 (stereo unspecified)	-17.6
CCSc1nc(CC(=O)N(C)Cc2ncc(C)[nH]2)cs1	1.4
O=C(CC1CC1)N1CC2(C1)[C@@H](c1ccccc1)[C@@H](CO)N2Cc1ccccn1	-2.9
CNC(=O)c1cc(=O)n(CC(=O)Nc2cccc(SC)c2)c2ccccc12	8.6
O=C1Cc2ccc(F)cc2CC1C1=Cc2ccc(F)cc2CC1 (stereo unspecified)	39.2
Cc1ccc(CN2CC[C@@H]3[C@H]2CCN3S(=O)(=O)C2CC2)cc1	-9.1
Cc1nn(CC(=O)NCCN2CCCCCC2)c(=O)c2nc(-c3ccccc3)sc12	22.4
Cc1nn(C)c2ncc(C(=O)Nc3ccc(F)c(Cl)c3)c(SC(C)C)c12	-56.5
C[C@H](c1ccc(F)cc1)n1c(C2CCC2)n[nH]c1=O	1.2
Cc1nc(C2CC2)ncc1C(=O)N1C[C@H]2CC[C@H]1C2	1.5
COc1ccccc1S(=O)(=O)N(C)C[C@@H]1OCc2ccccc2-c2ccccc2C(=O)N([C@@H](C)CO)C[C@@H]1C	35.2
NCCNS(=O)(=O)c1cccc2c(Cl)cccc12	-3.3
Cc1cc(C)nc(Nc2cc(C)nc(C3CN(CC(N)=O)C3)n2)n1	-0.8
Cc1ccc2occ(CN(Cc3ccc4c(c3)OCO4)CC(C)O)c(=O)c2c1 (stereo unspecified)	-0.9
CC(=O)N1CCCC(CNC(=O)Nc2nnc(-c3cccs3)s2)C1 (stereo unspecified)	18.2
Cc1oc(-c2ccccc2NS(C)(=O)=O)nc1CN(C)Cc1ccc(OC(F)F)cc1	7.8
CC(C)CN1C(=O)CCc2cc(NS(=O)(=O)c3ccc(Cl)cc3)ccc21	-80.1*
O=C1CCCCC(=O)c2ccccc2N1	-17.8
O=C(C[C@@H]1CC[C@H]2NC[C@H](O)COC[C@@H]2O1)NC1Cc2ccccc2C1	-19.0
Cc1cc(-n2cnnc2CCc2ccccc2)n(C)n1	11.1
COCC(=O)N1[C@@H](C#N)[C@H](c2ccc(C#Cc3ccccc3F)cc2)[C@@H]1CO	17.1
CCCCCCCCCCCCCCCC(=O)OC[C@H](NC(=O)C(Cl)Cl)[C@H](O)c1ccc([N+](=O)[O-])cc1	19.7&7.4
CCOc1ccc(-c2nc(Cn3nnc(C(=O)Nc4ccc(C)cc4C)c3C)c(C)o2)cc1OC	-34.4
CC(Sc1nccn1-c1cccc(Cl)c1Cl)C(=O)Nc1c(F)cccc1F (stereo unspecified)	23.0
COc1cccc(C(=O)N2CCC3(CC2)Nc2ccc(C)c(C)c2-n2cccc23)c1	48.8
O=C(CC1CC1)N1CC[C@H](O)[C@@H]1Cc1ccncc1	66.4
CCCC(=O)Nc1ccc2c(c1)C(=O)N(C)[C@H]1CC[C@H](CC(=O)NCc3cccc(F)c3)O[C@H]1CO2	12.1
CO[C@H]1CN(C)C(=O)c2cc(NC(=O)C3CC3)ccc2OC[C@H](C)N(Cc2cc(F)ccc2F)C[C@@H]1C	-71.8*
CCN(CCNc1nc(-c2ccc(OC)cc2)nc2ccccc12)Cc1ccccc1	-47.9
CCn1c(=O)c(-c2nc(-c3cc(C)ccc3C)no2)c(O)c2ccccc21	56.1
O=C1N[C@H](Cc2ccccc2)COCc2cnnn2CC[C@H]1Cc1ccc(-c2ccccc2)cc1	14.2
Cc1ccc(-c2ccc(=O)[nH]n2)cc1-n1cnnc1	8.1
CC(C)S(=O)(=O)N1C[C@@H]2c3ccccc3CN[C@@H]2C1	26.5
CNC(=O)c1c(NCc2cccc(OCc3cccnc3)c2)cnn1C	26.6
Cc1ccc(NC(=O)Cn2c(=O)cc(C(=O)N3CCOCC3)c3ccccc32)c(C)c1	-1.1
CO[C@@H]1CC[C@H]2CCOc3c(C#N)cccc3C(=O)N(C)C[C@H](c3ccccc3)CC(=O)N(C)C[C@@H]1O2	74.6
CC(=O)NC(Cc1ccccc1)C(=O)OCC(=O)c1ccccc1 (stereo unspecified)	18.3
CCc1nn(C)c(Cl)c1CN1CCCN(c2ccnc(C)c2)CC1	-2.4
CCC(C(=O)Nc1cc(C(=O)OC)cc(C(=O)OC)c1)c1ccccc1 (stereo unspecified)	-61.6
COc1cccc(-c2ccccc2[C@H]2[C@@H](C#N)N(C(=O)Cc3ccccc3)[C@H]2CO)c1	-60.4
C[C@@H]1CN([C@H](C)CO)C(=O)c2cc(NC(=O)C3CCCCC3)ccc2O[C@H]1CN(C)C(=O)Nc1ccc(C(F)(F)F)cc1	-24.5
CC(C)c1ccc(OCCN(C)Cc2cc3n(n2)CCCNC3)cc1	-31.9
Cc1cccc(-c2noc(CN(C)Cc3cc4n(n3)CCNC4)n2)c1	27.8
CN1CCC(NCCN(C)S(C)(=O)=O)CC1	12.1
Cc1nn(CCC(C)C)c2c1C(CCc1ccccc1)CC(=O)N2 (stereo unspecified)	-55.0
CCOC(=O)c1nn(CCCc2ccccc2)c2c1CN(C(=O)Cn1nc3ccccc3n1)CC2	-19.9
O=C(CCc1ccncc1)N1CCC(Oc2cccnc2)CC1	-8.2
Cc1cccc(NC(=O)CN2C(=O)CCc3cc(S(=O)(=O)N4CCCCC4C)ccc32)c1C (stereo unspecified)	30.2
Cc1ccc(C(=O)N2CCn3cc(CN4CCCC4)nc3C2)cn1	0.3
CN(CCNC(=O)C1(c2ccccc2F)CC1)S(C)(=O)=O	?
COc1cccc(OC[C@@H]2C3CCC(C3)N2C(=O)Cc2nonc2C)c1 (stereo partly specified)	30.0
CN(C)C(=O)N1CCN(C)C(c2nnc3ccc(C(=O)Nc4cccc(F)c4)cn23)C1 (stereo unspecified)	-42.4
CCN1CC2(CCN(C(=O)CC3CC3)CC2)COc2ccccc2S1(=O)=O	-7.7
OCCCn1cnc(-c2ccccc2)c1-c1cccn1-c1ccccn1	19.5
CCS(=O)(=O)Nc1ccc2c(c1)C(=O)N(C)[C@H]1CC[C@H](CC(=O)N[C@H]3CCN(Cc4ccccc4)C3)O[C@@H]1CO2	-3.9
Cc1nc2c(cnn2-c2ccccc2)c(=O)n1-c1cccc2ccccc12	-56.0

(list continues)
SMILES	Tgondii IFNg
CC(C)C[C@H](NC(=O)[C@@H](NC(=O)c1cccc(-c2ccccc2)n1)[C@@H](C)O)B(O)O	-64.3&-66.0
Cc1ccc(=O)n(CC(=O)NCc2cc(=O)[nH]c(N3CCCC3)n2)n1	2.2
Cc1ccccc1CN1CCC2(COCc3cnc(NCc4ccco4)nc32)C1 (stereo unspecified)	-10.9
O=C(NCC(O)c1ccccc1)Nc1cccs1 (stereo unspecified)	45.7
CC=Cc1ccc2n(c1=O)C[C@H]1[C@H](CO)[C@@H](C(=O)NCCC)[C@@H]2N1Cc1ccccc1OC (mixture of isomers)	-13.6
Cc1cccc(NC(=O)CC(=O)NC2(c3cc(F)ccc3F)CC2)c1C	-0.3
C/C=C/c1ccc(C2[C@H]3CNC[C@@H]2N3S(=O)(=O)Cc2ccccc2)cc1 (stereo partly specified)	6.0
O=C1NCC(=O)N2CCN(S(=O)(=O)N3CCCCCC3)CC12 (stereo unspecified)	1.8
Cc1ccc(CN(Cc2cccnc2)C2CC(C)(C)NC(C)(C)C2)s1	-22.7
Cc1ccc(-c2cnc(NC(=O)c3cccc(CN4CCCC4=O)c3)n2C)cc1C	136.6
CC1c2cccn2CCN1C(=O)CCCc1nc(-c2ccco2)no1 (stereo unspecified)	-9.3
O=C(NC(=S)Nc1ccc2c(c1)CCC2)c1ccccc1	-4.7
CCc1ccc(S(=O)(=O)N2CCc3c(CNc4ncccn4)nn(C)c3C2)cc1	-8.2
Cc1ccc(NC(=O)c2nc(Nc3ccccc3)c3ccccc3n2)cc1	-6.0
Cc1ccc(S(=O)(=O)Nc2ccc(-c3nc(-c4ccc(C)cc4C)co3)cc2)cc1	-47.9
O=C(Cn1c(=O)cc(C(=O)N2CCc3ccccc3C2)c2ccccc21)Nc1cc(F)ccc1F	2.6
CC(=O)N1CCC(C(=O)N2CCc3cc(-c4csc(C5CC5)n4)ccc32)CC1	44.9
Cn1c(=O)c2c(ncn2Cc2nnc(-c3ccccc3)o2)n(C)c1=O	-48.2
CC(c1ccc(-c2cncc(C(N)=O)c2)cc1)N1CCOCC1 (stereo unspecified)	2.0
CN1CCN(C(=O)C[C@H]2CC[C@H]3[C@H](COc4ccc(NC(=O)c5cccs5)cc4C(=O)N3C)O2)CC1	-11.2
CCNc1ncc(C2CC(=O)Nc3c2c(C)nn3-c2ccc(OC)cc2)cn1 (stereo unspecified)	6.6
COc1ccc(C(=O)N2CCc3c(nc(N4CCCC4)nc3Oc3cccnc3)C2)cc1	23.5
O=C(O)CN1CCOCC2(C1)CN(c1ccoc1)C(=O)CO2 (stereo unspecified)	6.7
CC(C)NC(=O)N1CCC2(CC1)CC(=O)N(c1cccnc1)c1ccccc12	4.4
CC(C)CCn1c(SCc2ccccc2)nc2c1c(=O)[nH]c(=O)n2C	-30.6
CCOC(=O)C1CCN(C(=O)c2oc3ccc4c(c3c2C)C(=O)CC2(CCCCC2)O4)CC1	325.2
O=C(CCc1c[nH]c2ccccc12)NCc1ccccc1-n1cncn1	23.5
CN(C)CC(=O)N1CC2(C1)[C@H](c1ccccc1)[C@H](CO)N2S(C)(=O)=O	18.3
COc1ccc(NC(=O)CSc2nc3c(c(-c4ccccc4)c2C#N)CCC3)cc1OC	-44.0
C[C@@H]1CN([C@H](C)CO)C(=O)c2cc(NC(=O)Nc3ccc(C(F)(F)F)cc3)ccc2O[C@@H](C)CCCCO[C@@H]1CN(C)S(=O)(=O)c1ccc(Cl)cc1	-30.4
COCCN(Cc1nccs1)C(=O)C1CC2(CCNCC2)CN1 (stereo unspecified)	1.2
Fc1ccccc1CSc1nc(NCc2ccc(Cl)cc2)c2ccccc2n1	-64.1
Cc1nnsc1CN(C)C(=O)c1cccc2c1OCC2	-40.3
CCC(=O)N1C[C@H](C)[C@@H](OC)CN(C)C(=O)c2cc(NC(=O)Nc3ccc(Cl)cc3)ccc2OC[C@@H]1C	240.1
COc1cccc(-c2ccc3c(c2)[C@@H]2[C@@H](CCN2C(=O)c2ccccn2)[C@H](CO)N3)c1	9.4
CCN1c2cc(F)ccc2C(=O)NC12CCN(C(=O)c1ccc(C)cc1)CC2	15.1
Cc1ccc2c(c1C)-n1cccc1C1(CCN(S(C)(=O)=O)CC1)N2	4.7
O=C(Cn1ncc2c(N3CCCC3)ncnc21)NCc1ccc2c(c1)OCO2	-13.2
COC(=O)Nc1nc2ccc(C(=O)c3ccccc3C(=O)OC(C)C)cc2[nH]1	-100.7*
CC(C)Nc1nc2c(cc1C(=O)N(C)C)CCN(C(=O)NC1CCCC1)CC2	4.3
CN1CCN(C(=O)C[C@@H]2CC[C@@H]3[C@H](COC[C@H](O)CN3CC3CCCCC3)O2)CC1	-44.0
O=S(=O)(c1cccc(F)c1)N1CC[C@@H]2[C@H](CO)Nc3ccc(Br)cc3[C@@H]21	6.2
COc1ccc(NC2(C(=O)N3[C@@H]4CC[C@H]3CNC(=O)C4)CCCC2)cc1	5.2
O=C(c1cscn1)N1CCCC(n2nnc3cc(C(F)(F)F)ccc32)C1 (stereo unspecified)	4.5
CCCC(=O)Nc1ccc(-n2ccnc2-c2nccn2C)cc1OC	-5.1
CCn1c(C2CCCN(Cc3c(Cl)cncc3Cl)C2)nn(C)c1=O (stereo unspecified)	3.8
COc1ccc(S(=O)(=O)N(C)C[C@H]2OCCCC[C@H](C)Oc3ccc(NC(=O)Cc4ccccc4)cc3C(=O)N([C@H](C)CO)C[C@@H]2C)cc1	-83.7*
COc1ccc(S(=O)(=O)N(Cc2nc(-c3ccccc3)oc2C)c2ccccc2OC)cc1	-59.2
CCc1cc(CN(C)Cc2ccc(S(C)(=O)=O)cc2)on1	2.1
CN(C)C(=O)CN1CCCn2cnc(COCC3CC3)c2C1	2.5
C=CCOCC1CN(C(=O)COCC)Cc2nccn2C1 (stereo unspecified)	-7.8
CC(C)c1noc(CCNC(=O)c2ccccc2C2CCNC2)n1 (stereo unspecified)	7.2
CC[C@H](C)[C@H]1O[C@]2(CC[C@@H]1C)C[C@@H]1C[C@@H](C/C=C(\C)[C@@H](O[C@H]3C[C@H](OC)[C@@H](O[C@H]4C[C@H](OC)[C@@H](O)[C@H](C)O4)[C@H](C)O3)[C@@H](C)/C=C/C=C3\CO[C@@H]4[C@H](O)C(C)=C[C@@H](C(=O)O1)[C@]34O)O2	-86.8*!
O=C(O)CCCC(=O)Nc1ccccc1-n1ccnc1	21.1
CN(C)C(=O)C[C@H]1CC[C@H]2[C@@H](COC[C@H](O)CN2C(=O)C2CCOCC2)O1	-28.8
CCOC(=O)CC1(NC(=O)N2CCC3(CC2)Nc2ccccc2-n2cccc23)CCCCC1	446.6
Cn1cnc(C(=O)N2CCC3(CC(Oc4cccnc4)CO3)C2)c1 (stereo unspecified)	3.6
CCn1cc(CN2CCC(CNC(=O)c3cccc(O)c3)C2)c(C)n1 (stereo unspecified)	-16.1
Cc1cc(Cl)ccc1NC(=O)CN1C(=O)CCc2cc(S(=O)(=O)N3CCCC3)ccc21	27.5

In the list so far, these have a CF3 group:
SMILES	Tgondii IFNg
C[C@@H]1CN([C@H](C)CO)C(=O)c2cc(NC(=O)C3CCCCC3)ccc2O[C@H]1CN(C)C(=O)Nc1ccc(C(F)(F)F)cc1	-24.5
C[C@@H]1CN([C@H](C)CO)C(=O)c2cc(NC(=O)Nc3ccc(C(F)(F)F)cc3)ccc2O[C@@H](C)CCCCO[C@@H]1CN(C)S(=O)(=O)c1ccc(Cl)cc1	-30.4
O=C(c1cscn1)N1CCCC(n2nnc3cc(C(F)(F)F)ccc32)C1 (stereo unspecified)	4.5

Not all compounds are listed; the hit share may differ from the screen's.
